Assay outcomes deposited in PubChem by Johns Hopkins Ion Channel Center.
Kir21 inh: inhibitors of mouse Kir2.1 inward-rectifier potassium channel. B-score at 10 µM. AID 1672. 310,000 tested, 0.85% active. P35561. HEK293-Kir2.1, FluxOR thallium flux fluorescence; stronger effect = lower value;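 active = fluorescence ratio B-score at or below minus 3 SD of library scores, with starting-brightness B-score within 2 SD, cut at about -4.2 in these data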;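 also: channel flux triggered by added potassium and thallium sulfate stimulus; B-score of peak minus minimum fluorescence over baseline after thallium stimulus; more negative B-score means stronger Kir2.1 block with less thallium influx; some compounds called inactive have numbers as strong as hits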
Target sequence (P35561 whole entry, looked up): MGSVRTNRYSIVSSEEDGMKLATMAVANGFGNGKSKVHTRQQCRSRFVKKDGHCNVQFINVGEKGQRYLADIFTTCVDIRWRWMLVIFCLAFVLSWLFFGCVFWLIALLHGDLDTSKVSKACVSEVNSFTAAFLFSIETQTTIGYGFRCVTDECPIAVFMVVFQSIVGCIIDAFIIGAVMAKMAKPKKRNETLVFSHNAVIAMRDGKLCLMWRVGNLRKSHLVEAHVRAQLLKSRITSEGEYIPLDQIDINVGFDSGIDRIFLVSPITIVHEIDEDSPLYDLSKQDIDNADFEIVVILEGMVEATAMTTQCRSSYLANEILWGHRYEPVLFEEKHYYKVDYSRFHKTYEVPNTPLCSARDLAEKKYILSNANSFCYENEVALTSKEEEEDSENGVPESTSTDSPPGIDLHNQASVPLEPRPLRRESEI
CHT block: inhibitors of human choline transporter CHT. CHT-expressing cells, membrane potential dye, choline response; stronger effect = lower value. 310,000 tested, 0.86% active. AID 488975. Q9GZV3. B-score at 10 µM;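 active = B-score over 3 SD under the library average, and starting fluorescence ratio not unusually high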;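 also: choline stimulus applied at its EC90 after an EC20 pre-addition; B-score computed on integrated fluorescence ratio after choline addition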
Target sequence (Q9GZV3 whole entry, looked up): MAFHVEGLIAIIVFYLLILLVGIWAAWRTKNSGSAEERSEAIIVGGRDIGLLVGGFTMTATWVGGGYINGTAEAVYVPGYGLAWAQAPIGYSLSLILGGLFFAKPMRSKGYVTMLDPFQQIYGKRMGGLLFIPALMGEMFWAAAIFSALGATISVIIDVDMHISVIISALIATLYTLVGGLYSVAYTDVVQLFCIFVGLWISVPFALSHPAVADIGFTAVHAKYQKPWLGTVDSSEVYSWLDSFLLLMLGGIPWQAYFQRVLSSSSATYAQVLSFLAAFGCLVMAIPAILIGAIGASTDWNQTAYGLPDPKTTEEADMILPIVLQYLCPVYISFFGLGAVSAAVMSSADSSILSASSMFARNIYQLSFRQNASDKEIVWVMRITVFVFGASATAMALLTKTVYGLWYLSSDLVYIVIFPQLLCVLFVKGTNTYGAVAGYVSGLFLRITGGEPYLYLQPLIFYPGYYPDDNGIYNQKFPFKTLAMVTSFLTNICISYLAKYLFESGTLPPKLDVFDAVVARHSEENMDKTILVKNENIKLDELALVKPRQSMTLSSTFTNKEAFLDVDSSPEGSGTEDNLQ
Starred values were filed as active, the others as inactive. An excerpt, and most or all hits are left out here.

How did [N-]=[N+]=CC(=O)C(Cc1ccccc1)N1C(=O)c2ccccc2C1=O (centres undefined) do in these assays?
Kir21 inh: -1.24; CHT block: inactive

Results for Cc1cc2oc(=O)cc(CN3CCCCC3)c2cc1C(C)C ?
Kir21 inh: 1.1; CHT block: inactive

Results for CCOc1ccccc1Nc1nc(N)nc(CSc2nccc(C)n2)n1 ?
Kir21 inh: -2.18; CHT block: inactive

What do the screens show for `COc1ccccc1NC(=O)Cn1cnc2c(oc3ccccc32)c1=O`?
Kir21 inh: -1.03; CHT block: inactive

How did CC(=O)c1cccc(S(=O)(=O)Nc2cccc(S(=O)(=O)NC3=NCCC3)c2)c1 do in these assays?
Kir21 inh: -0.94; CHT block: inactive

How did CC1(C)Cc2nc3sc4c(SCC(=O)NC(c5ccccc5)c5ccccc5)ncnc4c3cc2CO1 do in these assays?
Kir21 inh: 2.01; CHT block: inactive

How did COc1ccc2c(c1)CCN(C(=O)CCl)C2C1C(=O)CCCC1=O (centres undefined) do in these assays?
Kir21 inh: -0.5; CHT block: inactive

What do the screens show for `CCCn1nnnc1SCC(=O)Nc1nnc(CC)s1`?
Kir21 inh: 1.39; CHT block: inactive

What do the screens show for `Cc1ccc(NC(=S)NCC2CCCO2)cc1C` (centres undefined)?
Kir21 inh: -1.46; CHT block: inactive

What do the screens show for `C=CCN1CN(S(=O)(=O)c2ccc(OC)cc2)c2nc3ccccc3nc21`?
Kir21 inh: -0.31; CHT block: inactive

Results for CCNc1nc(NCC)nc(N(CC)C(N)=S)n1 ?
Kir21 inh: 0.39; CHT block: inactive

Results for Cc1ccc(N=CC2=C(O)CC(c3cccc(Cl)c3)CC2=O)cc1 (centres undefined) ?
Kir21 inh: 0.77; CHT block: inactive

What do the screens show for `CCOC(=O)C1CCCCN1Cc1cn[nH]c1-c1ccc(F)cc1F` (centres undefined)?
Kir21 inh: 0.03; CHT block: inactive

Results for O=[N+]([O-])c1cccc(C2NCC(c3ccccc3Cl)c3c2[nH]c2ccccc32)c1 (centres undefined) ?
Kir21 inh: -0.23; CHT block: inactive

Results for O=C(c1oc(=O)c2ccccc2c1-c1ccccc1)N1CCC(O)CC1 ?
Kir21 inh: -1.35; CHT block: inactive

How did COc1ccc(OC)c(Nc2nc(NCCCN(C)C)nc(N)c2[N+](=O)[O-])c1 do in these assays?
Kir21 inh: -0.07; CHT block: inactive

Results for CCCSc1nnc(CNS(=O)(=O)c2ccc(C)cc2)n1C ?
Kir21 inh: -1.27; CHT block: inactive

What do the screens show for `CN1CCN(NC(=O)c2cc(-c3cccc(Cl)c3)nc3ccccc23)CC1`?
Kir21 inh: 0; CHT block: inactive

Results for Nc1n[nH]c2ccccc12 ?
Kir21 inh: 1.02; CHT block: inactive

What do the screens show for `COc1ccc(/C=C2/SC(=O)N(CCNC(=O)CC(NC(C)=O)c3ccccc3)C2=O)cc1` (centres undefined)?
Kir21 inh: -0.45; CHT block: inactive

Results for CCCC(=O)N1CCN(c2ccc(NC(=O)c3ccc(N4CCCC4)c([N+](=O)[O-])c3)cc2Cl)CC1 ?
Kir21 inh: 1.28; CHT block: inactive

How did CCC1CCCCN1C(=O)Cn1nc([N+](=O)[O-])c(Cl)c1C (centres undefined) do in these assays?
Kir21 inh: 0.01; CHT block: inactive

How did O=C1CC(c2ccc(F)cc2)c2cc3c(cc2N1)CCC3 (centres undefined) do in these assays?
Kir21 inh: 0.62; CHT block: inactive

Results for C/C(=N\Nc1ccc([N+](=O)[O-])cc1)c1ccc(-n2nncc2C(C)(C)C)cc1 ?
Kir21 inh: 0.45; CHT block: inactive

Results for CC(C)(C)c1ccc(CN2N=Nc3ccccc3S2(=O)=O)cc1 ?
Kir21 inh: -0.55; CHT block: inactive

What do the screens show for `O=C(O)C1c2ccccc2C(=O)N(Cc2ccc(F)cc2)C1c1ccncc1` (centres undefined)?
Kir21 inh: -0.24; CHT block: inactive

Results for Nc1ccc(Sc2nc3ccccc3[nH]2)cc1 ?
Kir21 inh: 1.15; CHT block: inactive

Results for O=C(c1ccc(S(=O)(=O)N2CCOCC2)cc1)N1CCCc2ccccc21 ?
Kir21 inh: -1.29; CHT block: inactive

How did O=C(O)C1=NOC(CNC(=O)c2ccccc2Cl)C1 (centres undefined) do in these assays?
Kir21 inh: -0.76; CHT block: inactive

How did CNC(=S)N(CCc1c(C)[nH]c2ccc(Cl)cc12)Cc1cc(OC)c(OC)c(OC)c1 do in these assays?
Kir21 inh: -2.99; CHT block: inactive

Results for Cc1ccc(S(=O)(=O)NC(=O)c2cc(C)n(-c3ccccc3)c2C)cc1 ?
Kir21 inh: -0.37; CHT block: inactive

What do the screens show for `CCCn1c(SCC(=O)c2ccc3c(c2)OCCO3)nc2c1c(=O)n(C)c(=O)n2C`?
Kir21 inh: -0.96

How did O=C(Nc1cccc(C(F)(F)F)c1)C1CCCN1S(=O)(=O)c1cccc2cccnc12 (centres undefined) do in these assays?
Kir21 inh: -0.21; CHT block: inactive

How did CCOC(=O)C(CCC(C)=O)C(=O)c1ccccc1 (centres undefined) do in these assays?
Kir21 inh: 0.12; CHT block: inactive

Results for Cc1ccc(S(=O)(=O)N2CCC(=O)N(CCOC(=O)Nc3ccc(C)c(C)c3)CC2)cc1 ?
Kir21 inh: -0.84; CHT block: inactive

How did CCCCCC1CCC(C(=O)N2CCOCC2)CC1 (centres undefined) do in these assays?
Kir21 inh: -0.04; CHT block: inactive

What do the screens show for `O=C(N/N=C/c1ccncc1)c1cc(Br)ccc1OCc1ccccc1`?
Kir21 inh: 0.09; CHT block: inactive

What do the screens show for `Cc1cc(=O)[nH]c(SCC(=O)Nc2ccccc2C)n1`?
Kir21 inh: 0.5; CHT block: inactive

What do the screens show for `Cc1nnc(NC(=O)CSc2ccccn2)s1`?
Kir21 inh: -1.52; CHT block: inactive

How did C=C(C)C1CC=C(C)/C(=N/NC(=O)c2ccc(NC(=O)c3cccc(C)c3)cc2)C1 (centres undefined) do in these assays?
Kir21 inh: 0.5; CHT block: inactive

What do the screens show for `Cc1ccc(C)c(NCCC#N)c1`?
Kir21 inh: -0.14; CHT block: inactive

How did COc1ccc(C(=O)Nc2ccc(N3CCN(C)CC3)cc2)cc1 do in these assays?
Kir21 inh: 2.21; CHT block: inactive

How did CC1=CC(C)C(C[N+]2(C)CCCCC2)C(C)C1 (centres undefined) do in these assays?
Kir21 inh: -0.27; CHT block: inactive

Results for COc1ccc(CNCC(C)NCc2ccc(OC)c(OC)c2)cc1OC (centres undefined) ?
Kir21 inh: 1.73; CHT block: inactive

What do the screens show for `O=C(OCc1ccc(Cl)c(Cl)c1)c1cccnc1Cl`?
Kir21 inh: 0.88; CHT block: inactive

Continued, overlapping the part above by 2 compounds.
Results for COc1ccc(CNCC(C)NCc2ccc(OC)c(OC)c2)cc1OC (centres undefined) ?
Kir21 inh: 1.73; CHT block: inactive

What do the screens show for `O=C(OCc1ccc(Cl)c(Cl)c1)c1cccnc1Cl`?
Kir21 inh: 0.88; CHT block: inactive

How did CCOC(=O)c1ccc(COC(=O)c2nonc2N)cc1 do in these assays?
Kir21 inh: -0.13; CHT block: inactive

What do the screens show for `CCOc1ccc(-c2nc(C)c(C(C)=O)n2O)cc1`?
Kir21 inh: -0.1; CHT block: inactive

What do the screens show for `CCOC(=O)c1[nH]c(C(=O)O)c(OC(=O)CC)c1C`?
Kir21 inh: 0.34; CHT block: inactive

How did Cc1nn(Cc2ccc(C(=O)O)o2)c(C)c1[N+](=O)[O-] do in these assays?
Kir21 inh: 0.06; CHT block: inactive

Results for CCc1ccc(-c2nn(Cc3ccccc3)cc2/C=C/C(=O)O)cc1 ?
Kir21 inh: 0.64; CHT block: inactive

How did CN=C1CC(SC)=C1c1ccc(C)cc1 do in these assays?
Kir21 inh: 0.78; CHT block: inactive

Results for COc1cc(C(=O)N(Cc2cc3ccccc3[nH]c2=O)CC2CCCO2)cc(OC)c1OC (centres undefined) ?
Kir21 inh: -0.83; CHT block: inactive

What do the screens show for `O=C(O)c1ccc(Sc2ccccn2)c([N+](=O)[O-])c1`?
Kir21 inh: 1.26; CHT block: inactive

What do the screens show for `CCOc1cc(/C=N/NC(=O)c2ccncc2)ccc1OC(=O)c1ccc([N+](=O)[O-])cc1`?
Kir21 inh: 1.99; CHT block: inactive

What do the screens show for `CC1CCN(Cc2ccc(-c3nnn(CC(=O)NC4CCCCC4)n3)cc2)CC1`?
Kir21 inh: -1.83; CHT block: inactive

How did O=C(Nc1ccc2oc(-c3ccccc3F)nc2c1)c1ccco1 do in these assays?
Kir21 inh: -0.04; CHT block: inactive

What do the screens show for `Cc1cc(Nc2ccc(F)cc2)n2nc(C)nc2n1`?
Kir21 inh: 0.43; CHT block: inactive

How did CCOC(=O)c1c(N)n[nH]c1-c1ccccc1 do in these assays?
Kir21 inh: -0.96; CHT block: inactive

How did CC1(C)CC(O)CC(C)(C)N1CC(O)COCc1ccccc1 (centres undefined) do in these assays?
Kir21 inh: -0.21; CHT block: inactive

What do the screens show for `CCC(NC(=O)c1ccccc1NC(=O)c1ccccc1)C(=O)O` (centres undefined)?
Kir21 inh: -0.39; CHT block: inactive

Reprinted at random: 6 records from the list
What do the screens show for `Cc1cc(Nc2ccc(F)cc2)n2nc(C)nc2n1`?
Kir21 inh: 0.43; CHT block: inactive

What do the screens show for `O=C(O)c1ccc(Sc2ccccn2)c([N+](=O)[O-])c1`?
Kir21 inh: 1.26; CHT block: inactive

What do the screens show for `CCOc1cc(/C=N/NC(=O)c2ccncc2)ccc1OC(=O)c1ccc([N+](=O)[O-])cc1`?
Kir21 inh: 1.99; CHT block: inactive

What do the screens show for `CCOc1ccc(-c2nc(C)c(C(C)=O)n2O)cc1`?
Kir21 inh: -0.1; CHT block: inactive

What do the screens show for `CCOC(=O)c1[nH]c(C(=O)O)c(OC(=O)CC)c1C`?
Kir21 inh: 0.34; CHT block: inactive

How did CCOC(=O)c1ccc(COC(=O)c2nonc2N)cc1 do in these assays?
Kir21 inh: -0.13; CHT block: inactive

New compounds follow:
What do the screens show for `Cc1cc(C(=O)N/N=C2\CC(=O)CC(C)(C)C2)n[nH]1`?
Kir21 inh: 0.95; CHT block: inactive

What do the screens show for `COCCN1CCC(CNCc2cn(-c3cc(C)ccc3C)nc2-c2ccccc2)C1` (centres undefined)?
Kir21 inh: -1.07; CHT block: inactive

Results for COc1ccc(NC2CC(=O)N(C)C2=O)cc1 (centres undefined) ?
Kir21 inh: 1.37; CHT block: inactive

Results for Cc1c([N+](=O)[O-])c([N+](=O)[O-])nn1CC(=O)N1CCOCC1 ?
Kir21 inh: 1.94; CHT block: inactive

What do the screens show for `COc1cc2c(cc1OC)C(C)N(CCN1C(=O)c3ccccc3C1=O)CC2` (centres undefined)?
Kir21 inh: -0.02; CHT block: inactive

What do the screens show for `CCOC(=O)C1CCN(CCC(=O)Nc2cc(C)ccc2C)CC1`?
Kir21 inh: 0.25; CHT block: inactive

Results for c1ccc(CCc2nc(-c3ccncc3)no2)cc1 ?
Kir21 inh: -0.86; CHT block: inactive

What do the screens show for `C=C(C)Cn1c(CCNC(=O)CCC)nc2ccccc21`?
Kir21 inh: -0.24; CHT block: inactive

How did COc1ccc(N2C(=O)CC(N3CCC(c4nc5ccccc5[nH]4)CC3)C2=O)cc1 (centres undefined) do in these assays?
Kir21 inh: -0.33; CHT block: inactive

What do the screens show for `COc1c(/C=N/NS(=O)(=O)c2ccc(C)cc2)c(CCN(C)C(C)=O)cc2c1OCO2`?
Kir21 inh: -0.97; CHT block: inactive

How did CCN(CC(=O)Nc1ccc2c(c1)OCO2)S(=O)(=O)c1ccccc1 do in these assays?
Kir21 inh: -0.33; CHT block: inactive

What do the screens show for `O=C(CC1C(=O)NCCN1Cc1cccc(F)c1F)NC1CCCCCC1` (centres undefined)?
Kir21 inh: -0.14; CHT block: inactive

Results for CC1CCc2sc(C(=O)OCC(=O)NC(N)=O)cc2C1 (centres undefined) ?
Kir21 inh: 2.07; CHT block: inactive

How did Cc1[nH]nc(N)c1-c1ccccc1 do in these assays?
Kir21 inh: -0.08; CHT block: inactive

How did Cc1ccc(Cl)c(OC(=O)c2ccc(N3CCOCC3)c([N+](=O)[O-])c2)c1 do in these assays?
Kir21 inh: 0.56; CHT block: inactive

Results for C/C(=C/c1ccccc1)C(=O)N1CCC(C)CC1 ?
Kir21 inh: -1.58; CHT block: inactive

How did Cc1ccc(CNC(=O)c2ccc3c(=O)n(CCCN4CCCC4=O)c(=S)[nH]c3c2)cc1 do in these assays?
Kir21 inh: -0.23; CHT block: inactive

What do the screens show for `O=C(NCCO)/C(=C/c1ccco1)NC(=O)c1ccco1`?
Kir21 inh: 1.6; CHT block: inactive

Results for O=C(COC(=O)c1cccs1)NCCC1=CCCCC1 ?
Kir21 inh: -0.4; CHT block: inactive

Results for CCCC(=O)Nc1nnc(S(=O)(=O)N(CC)c2ccc(OC)cc2)s1 ?
Kir21 inh: -0.01; CHT block: inactive

Results for COc1ccc(CNC(=O)CCSCc2cccc(F)c2)cc1 ?
Kir21 inh: -0.97; CHT block: inactive

What do the screens show for `O=C1[C@H]2CC3CCC2(O3)[C@@H]2OCCCN12` (some centres undefined)?
Kir21 inh: 0.08; CHT block: inactive

Results for NC(=O)Cn1cnc2c(nnn2-c2cccc(Cl)c2)c1=O ?
Kir21 inh: -1.07; CHT block: inactive

Results for CCCCCCCc1nc2nc(C)c(Br)c(=O)n2[nH]1 ?
Kir21 inh: -0.09; CHT block: inactive

What do the screens show for `CCCC(O)(CCC)C(=O)NN1CCCCC1`?
Kir21 inh: -1.08; CHT block: inactive

How did N#CCC(=O)Nc1nc(-c2ccc3c(c2)OCCO3)cs1 do in these assays?
Kir21 inh: -0.1; CHT block: inactive
